Screening data as filed in PubChem.
MLL AF4-AF9 inh = blocks AF4 peptide binding to human AF9; 350,000 tested, 0.47% active; AlphaScreen, biotin-AF4 peptide binding to FLAG-AF9; AID 651704; P42568; inhibition, % at 10 µM;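 active = every replicate reaching a set inhibition limit, whatever the replicate mean, cut at about 25% in these data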;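 also: 0% = plate neutral control median and 100% = total signal loss; the record names both 10 and 1 µM as test concentration; the first replicate is given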
Target sequence (P42568 whole entry, looked up): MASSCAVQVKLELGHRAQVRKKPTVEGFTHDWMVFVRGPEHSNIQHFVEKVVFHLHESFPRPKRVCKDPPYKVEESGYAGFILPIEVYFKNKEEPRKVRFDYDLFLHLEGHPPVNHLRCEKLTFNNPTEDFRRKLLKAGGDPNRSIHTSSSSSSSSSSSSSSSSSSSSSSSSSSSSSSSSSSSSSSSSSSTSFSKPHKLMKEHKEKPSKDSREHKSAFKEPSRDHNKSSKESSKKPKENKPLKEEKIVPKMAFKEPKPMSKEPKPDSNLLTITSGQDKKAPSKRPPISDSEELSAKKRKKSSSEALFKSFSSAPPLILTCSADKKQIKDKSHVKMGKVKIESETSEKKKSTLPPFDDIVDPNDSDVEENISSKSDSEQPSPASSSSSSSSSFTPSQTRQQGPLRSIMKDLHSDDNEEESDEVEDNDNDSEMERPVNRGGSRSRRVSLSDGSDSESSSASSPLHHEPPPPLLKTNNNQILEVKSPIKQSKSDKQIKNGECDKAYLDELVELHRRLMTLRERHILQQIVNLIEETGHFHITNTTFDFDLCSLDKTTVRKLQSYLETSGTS
* hit, by the source's call; & = joins results of further samples.

SMILES	MLL AF4-AF9 inh
COc1cccc(NC(=O)Nc2ccc3c(c2)OC[C@H](C)NC[C@H](C)[C@@H](OC)CN(C)C3=O)c1	5.0
COc1cccc(NC(=O)C[C@H]2CC[C@@H]3[C@H](COc4ccc(NC(=O)C5CC5)cc4C(=O)N3C)O2)c1	2.0
C[C@H](CO)N1C[C@H](C)[C@H](CN(C)S(=O)(=O)c2ccc(F)cc2)Oc2cc(Br)ccc2S1(=O)=O	3.3
O=C1CN(S(=O)(=O)Cc2ccccc2)C[C@@H]2[C@@H](c3ccc(C#Cc4ccccc4)cc3)[C@@H](CO)N12	-4.0
C[C@@H]1CN([C@@H](C)CO)C(=O)Cc2cc(NC(=O)CCCN(C)C)ccc2O[C@H]1CN(C)C	-6.2
CS(=O)(=O)c1ccc(C(=O)N2CCN(S(=O)(=O)c3ccc(C4CCCCC4)cc3)CC2)cc1	1.2
O=C(C[C@@H]1C=C[C@H](NC(=O)Nc2ccc(C(F)(F)F)cc2)[C@@H](CO)O1)NCCN1CCCC1	-1.5
O=C(C[C@H]1CC[C@@H](NS(=O)(=O)c2ccccc2)[C@H](CO)O1)N1CCC(Cc2ccccc2)CC1	-1.4
CC(C)(C)OC(=O)N1CCC[C@H]1C(=O)N1CCC[C@H]1C(=O)NCc1ccncc1	-10
COc1ccc(C#Cc2ccc([C@@H]3[C@@H](CO)N4CCCCN(C(=O)c5ccncc5)C[C@@H]34)cc2)cc1	-3.9

Pulled by compound from the entries so far (7):
SMILES	MLL AF4-AF9 inh
COc1ccc(C#Cc2ccc([C@@H]3[C@@H](CO)N4CCCCN(C(=O)c5ccncc5)C[C@@H]34)cc2)cc1	-3.9
CC(C)(C)OC(=O)N1CCC[C@H]1C(=O)N1CCC[C@H]1C(=O)NCc1ccncc1	-10
COc1cccc(NC(=O)C[C@H]2CC[C@@H]3[C@H](COc4ccc(NC(=O)C5CC5)cc4C(=O)N3C)O2)c1	2.0
O=C1CN(S(=O)(=O)Cc2ccccc2)C[C@@H]2[C@@H](c3ccc(C#Cc4ccccc4)cc3)[C@@H](CO)N12	-4.0
C[C@H](CO)N1C[C@H](C)[C@H](CN(C)S(=O)(=O)c2ccc(F)cc2)Oc2cc(Br)ccc2S1(=O)=O	3.3
COc1cccc(NC(=O)Nc2ccc3c(c2)OC[C@H](C)NC[C@H](C)[C@@H](OC)CN(C)C3=O)c1	5.0
O=C(C[C@@H]1C=C[C@H](NC(=O)Nc2ccc(C(F)(F)F)cc2)[C@@H](CO)O1)NCCN1CCCC1	-1.5

(more compounds)
SMILES	MLL AF4-AF9 inh
COc1cc(OC)cc(-c2c(Sc3ccccc3)c3cc(-c4cnc(OC)nc4)ccc3n2C)c1	-0.2
C[C@@H]1CCCCO[C@H](CN(C)C(=O)CCCN(C)C)[C@@H](C)CN([C@@H](C)CO)C(=O)c2cc(N(C)C)ccc2O1	-2.0
COCC#Cc1cnc2c(c1)C(=O)N([C@H](C)CO)C[C@H](C)[C@H](CN(C)Cc1ccc(F)cc1)O2	-3.9
CO[C@@H](CN(C)S(=O)(=O)c1ccc(C)cc1)[C@@H](C)CN(C(=O)Nc1ccccc1F)[C@H](C)CO	-0.5
C[C@H](CO)N1C[C@H](C)[C@@H](CN(C)C(=O)[C@@H](Cc2ccccc2)N(C)C)OCc2ccccc2-c2ccccc2C1=O	-2.7
Cc1ccc(S(=O)(=O)Nc2cccc3c2O[C@@H](CN(C)Cc2ccc(C(=O)Nc4ccccc4N)cc2)[C@@H](C)CN([C@@H](C)CO)C3=O)cc1	2.1
CCc1sc(N2[C@@H](C#N)[C@@H](c3ccccc3-c3cccc(F)c3)[C@@H]2CO)nc1C	5.9
COc1ccc(S(=O)(=O)N[C@@H]2C=C[C@@H](CC(=O)N3CCc4ccccc4C3)O[C@@H]2CO)cc1	-3.7&-0.2
CO[C@H]1CN(C)C(=O)c2cc(NS(=O)(=O)c3cccc(F)c3)ccc2OC[C@@H](C)N(Cc2cc(F)ccc2F)C[C@@H]1C	-0.3
CC(C)CC#Cc1cnc2c(c1)C(=O)N([C@H](C)CO)C[C@@H](C)[C@H](CN(C)C(=O)C1CCCCC1)O2	1.7
C[C@H]1CN([C@@H](C)CO)C(=O)c2cc(NC(=O)Nc3cccc4ccccc34)ccc2O[C@@H]1CN(C)C(=O)Nc1cccc2ccccc12	-1.4
CC(=O)NC[C@H]1[C@H](c2ccc(-c3ccccc3F)cc2)[C@@H](CO)N1C(C)=O	-0.9
C[C@@H]1CN([C@@H](C)CO)C(=O)c2cc(NC(=O)Cn3cnnn3)ccc2O[C@@H]1CN(C)Cc1ccc(C(=O)Nc2ccccc2N)cc1	2.3
Cc1cc(F)ccc1-c1cc(C(=O)NC(C)C)[nH]n1	0.4
CC(C)NC(=O)Nc1ccc2c(c1)C(=O)N([C@H](C)CO)C[C@H](C)[C@H](CN(C)Cc1ccc(Cl)c(Cl)c1)OCCCC[C@H](C)O2	9.0
C/C=C/c1cnc2c(c1)C(=O)N([C@@H](C)CO)C[C@H](C)[C@@H](CN(C)C(=O)Nc1cccc(OC)c1)O2	-2.2
CNC[C@@H]1Oc2ccc(NS(=O)(=O)c3ccc(C)cc3)cc2C(=O)N([C@@H](C)CO)C[C@@H]1C	-0.1
Cc1cc(C(=O)Nc2cccc3c2O[C@@H](CN(C)S(=O)(=O)c2ccccc2)[C@@H](C)CN([C@@H](C)CO)C3=O)n(C)n1	-14
CC(C)C[C@@H](CN1CCC[C@@H]1CN1C(=O)C(=O)NC[C@@H]1Cc1ccc(O)cc1)N1C[C@H](Cc2ccc(O)cc2)N(CC2CCCCCC2)C(=O)C1=O	-1.2
Cc1noc(C)c1NC(=O)N[C@@H]1CC[C@H](CC(=O)NCc2ccc(Cl)c(Cl)c2)O[C@H]1CO	1.5
C[C@@H]1CN([C@@H](C)CO)S(=O)(=O)c2ccc(Br)cc2O[C@@H]1CN(C)S(C)(=O)=O	2.3
C[C@@H]1CN([C@H](C)CO)C(=O)c2ccccc2-c2ccccc2CO[C@H]1CN(C)S(=O)(=O)c1cccs1	4.3
Cc1cccc(-c2ccc(C3[C@@H]4CN(Cc5ccccc5)C[C@H]3N4)cc2)c1 (some centres undefined)	8.2
O=C(c1ccc2c(c1)OCO2)N1CC(=O)N2[C@@H](CO)[C@@H](c3ccc(C#CC4CCCC4)cc3)[C@@H]2C1	4.3
CNc1cc(-c2cccc(OC)c2F)nc2ccnn12	-7.8
C[C@H](CO)N1C[C@H](C)[C@@H](CN(C)C(=O)Nc2ccc(C(F)(F)F)cc2)OCCCC[C@H](C)Oc2ccc(NC(=O)C3CCCCC3)cc2C1=O	0.0
CN1C[C@@H](O)COC[C@H]2O[C@@H](CC(=O)NC3CCCC3)CC[C@@H]21	-1.3
C[C@@H]1CN([C@@H](C)CO)S(=O)(=O)c2ccc(-c3ccncc3)cc2O[C@H]1CN(C)Cc1cncnc1	-1.7
C[C@@H]1CN([C@@H](C)CO)C(=O)c2cc(NC(=O)Nc3ccc4c(c3)OCO4)ccc2O[C@@H](C)CCCCO[C@H]1CN(C)Cc1ccc(C(F)(F)F)cc1	2.5
O=C(c1ccccn1)N1CC[C@H]2[C@H](CO)Nc3ccc(Br)cc3[C@H]21	1.0
CC(C)C#Cc1cnc2c(c1)C(=O)N([C@@H](C)CO)C[C@H](C)[C@H](CN(C)C(=O)Nc1ccccc1F)O2	-4.4
C[C@@H]1CN([C@@H](C)CO)C(=O)Cc2cc(N(C)C)ccc2O[C@@H]1CN(C)C(=O)Nc1ccc(F)cc1	-1.5
C[C@@H]1CN([C@H](C)CO)C(=O)Cc2cc(NC(=O)Nc3ccc(F)cc3)ccc2O[C@H]1CN(C)Cc1ccc(-c2ccccc2)cc1	-10
CC1(C(=O)NS(=O)(=O)c2cccc(Cl)c2)CCN1C(=O)Cc1cccs1 (centres undefined)	-0.3
C[C@@H]1CN([C@H](C)CO)C(=O)Cc2cc(NC(=O)Nc3ccc4c(c3)OCO4)ccc2O[C@@H]1CN(C)C(=O)NC1CCCCC1	1.6
CCOC(=O)C1CCCN(C(=O)c2ccc(OC)cc2)CC1 (centres undefined)	-0.4
CCCNC(=O)N1C[C@H](C)[C@@H](OC)CN(C)C(=O)c2cc(NS(=O)(=O)CC)ccc2OC[C@@H]1C	-0.5
O=C(C[C@@H]1CC[C@H](NC(=O)c2ccc3c(c2)OCO3)[C@@H](CO)O1)NCc1ccc(F)cc1	0.0&-2.8
CO[C@@H]1CC[C@H]2CCN(C)C(=O)CCCN(C)C(=O)c3cc(C#N)ccc3OC[C@H]1O2	-0.8
O=C(CN1CCOCC1)NC[C@@H]1[C@@H](c2ccccc2)[C@@H](CO)N1CC1CC1	-2.8
COc1ccccc1-c1ccc([C@H]2[C@H](CO)N3CCCCN(S(=O)(=O)c4cn(C)cn4)C[C@@H]23)cc1	-0.4
CCN(C[C@H]1[C@H](c2ccccc2)[C@@H](CO)N1C(=O)COC)S(C)(=O)=O	0.2
CCC(=O)Nc1ccc2c(c1)C(=O)N(C)[C@H]1CC[C@H](CC(=O)NC3CCCC3)O[C@@H]1CO2	-0.3
Nc1ncnc2c1ccn2[C@H]1CN(Cc2ccc3c(c2)OCO3)C[C@@H](COC(=O)c2ccccc2)O1	3.4
C[C@@H]1CN([C@H](C)CO)S(=O)(=O)c2ccc(C#CCN(C)C)cc2O[C@H]1CN(C)S(C)(=O)=O	-6.5
CC(C)C[C@@H]1COCn2nncc2CCCC(=O)N1	14
OC(c1ccc(-c2ccccc2)cc1)c1ncc(-c2ccccc2)[nH]1 (centres undefined)	-3.1
C[C@@H]1CCCCO[C@@H](CN(C)Cc2ccc(C(F)(F)F)cc2)[C@@H](C)CN([C@H](C)CO)C(=O)c2cc(NC(=O)Nc3ccc(F)cc3)ccc2O1	-2.6
C[C@H](CO)N1C[C@H](C)[C@@H](CN(C)Cc2ccncc2)Oc2ccc(NC(=O)Nc3cccc4ccccc34)cc2CC1=O	4.4
Cc1ccc(S(=O)(=O)N[C@H]2C=C[C@H](CC(=O)NCc3ccncn3)O[C@H]2CO)cc1	1.0

More results
SMILES	MLL AF4-AF9 inh
CCCC(=O)N1CCC2(CC1)CN(C(=O)C1CCCCC1)[C@@H](CO)c1[nH]c3cc(OC)ccc3c12	2.5
O=C1CN(S(=O)(=O)c2ccccc2)C[C@H]2[C@@H](c3ccc(Br)cc3)[C@H](CO)N12	-1.9
COc1ccc(CN(C)C[C@H]2Oc3ccc(NC(=O)Nc4c(C)noc4C)cc3C(=O)N([C@@H](C)CO)C[C@H]2C)cc1	-2.2
C[C@H](CO)N1C[C@H](C)[C@H](CN(C)Cc2ccc(C(F)(F)F)cc2)Oc2c(NC(=O)c3nc4ccccc4s3)cccc2C1=O	-1.2
CO[C@H]1CN(C)C(=O)c2cc(NS(C)(=O)=O)ccc2OC[C@@H](C)N(C(=O)C2CCCCC2)C[C@@H]1C	-1.6
COc1ccc(NC(=O)N(C)C[C@H]2Oc3ccc(NS(C)(=O)=O)cc3C(=O)N([C@H](C)CO)C[C@@H]2C)cc1	-2.5
Cc1cccc(NC(=O)Nc2ccc3c(c2)C(=O)N(C)[C@H]2CC[C@@H](CC(=O)NCc4ccccc4Cl)O[C@@H]2CO3)c1	3.0
CNC[C@@H]1Oc2cc(C#C[C@H](C)O)ccc2S(=O)(=O)N([C@H](C)CO)C[C@H]1C	0.9
C[C@@H]1CN([C@H](C)CO)C(=O)c2cc(C3=CCCCC3)cnc2O[C@H]1CN(C)C(=O)C1CCOCC1	-1.3
N#C[C@@H]1[C@H](c2ccccc2C2=CCCCC2)[C@H](CO)N1C(=O)Nc1ccccc1F	0.2
CCCC(=O)Nc1ccc2c(c1)C(=O)N(C)C[C@@H](OC)[C@@H](C)CN(S(=O)(=O)c1cn(C)cn1)[C@H](C)CO2	0.2
COc1ccc(NC(=O)Nc2ccc3c(c2)C(=O)N([C@@H](C)CO)C[C@@H](C)[C@@H](CN(C)C(=O)CCCN(C)C)OCCCC[C@@H](C)O3)cc1	9.1
C[C@@H]1CN([C@H](C)CO)S(=O)(=O)c2ccc(C#Cc3ccncc3)cc2O[C@H]1CN(C)C(=O)c1ccncc1	-4.4
Cc1c(C(=O)NCc2ccc(Cl)c(Cl)c2)sc(=O)n1Cc1ccc(S(C)(=O)=O)cc1	-4.7
C[C@@H]1CN([C@@H](C)CO)C(=O)Cc2cc(NS(=O)(=O)c3ccc(Cl)cc3)ccc2O[C@@H]1CN(C)S(=O)(=O)c1ccc(Cl)cc1	3.5
CC(=O)N1CC(=O)N2[C@H](CO)[C@@H](c3ccc(-c4ccncc4)cc3)[C@@H]2C1	-4.8
O=C(NCc1ccccc1)c1cc(C2CCCCN2C(=O)c2cccs2)on1 (centres undefined)	5.6
Cc1ccc(C(NC(=O)C2CCN(Cc3ccc(Oc4ccccc4)cc3)CC2)c2ccccn2)cc1 (centres undefined)	-1.9
Cn1ccc2c(-c3ccc(CO)cc3)cc3c(c21)C1CCC3C1 (centres undefined)	1.4
CCCC(=O)N1CC2(C1)CN(C(=O)c1ccc(F)cc1)[C@H](CO)c1[nH]c3cc(OC)ccc3c12	-6.5
C[C@@H]1CN([C@H](C)CO)C(=O)c2cc(NS(=O)(=O)c3ccccc3)ccc2O[C@@H](C)CCCCO[C@@H]1CN(C)C(=O)NC1CCCCC1	-0.8
CCCCn1c(N)c(N(CCOC)C(=O)CN2C(=O)NC3(CC(C)CC(C)(C)C3)C2=O)c(=O)[nH]c1=O (centres undefined)	2.0
CCCNC(=O)N(C)C[C@H]1Oc2cc(-c3cccnc3)ccc2S(=O)(=O)N([C@H](C)CO)C[C@@H]1C	2.5
CCCCNC(=O)C1c2ccccc2OCC(=O)N1CCc1ccccc1 (centres undefined)	-1.2
Cn1ncc2c(=S)[nH]c(=S)[nH]c21	-9.3
O=C(N[C@@H]1CC[C@H](CCn2cc(C3(O)CCCC3)nn2)O[C@@H]1CO)C1CCCC1	-0.7

These rows are one share of the data; rates above refer to the full screens.
